VDR inh = Inhibitors of the vitamin D receptor (VDR): qHTS; hit rate 0.93% among 400,000; Vitamin D3 receptor (Homo sapiens), P11473; VDR-SRC2-3 peptide fluorescence polarization, 2 h; Potency, µM, without a hit: max response, negative = inhibition, hits mostly inhibitors; active = well fitted inhibition curve with a large enough effect; inconclusive = small, poorly fitted or top-dose-only effect, or another doubt; inactive = no such curve, though single readings can be large or run the other way; also: series mostly up to about 120 µM
Target sequence (P11473 whole entry, looked up): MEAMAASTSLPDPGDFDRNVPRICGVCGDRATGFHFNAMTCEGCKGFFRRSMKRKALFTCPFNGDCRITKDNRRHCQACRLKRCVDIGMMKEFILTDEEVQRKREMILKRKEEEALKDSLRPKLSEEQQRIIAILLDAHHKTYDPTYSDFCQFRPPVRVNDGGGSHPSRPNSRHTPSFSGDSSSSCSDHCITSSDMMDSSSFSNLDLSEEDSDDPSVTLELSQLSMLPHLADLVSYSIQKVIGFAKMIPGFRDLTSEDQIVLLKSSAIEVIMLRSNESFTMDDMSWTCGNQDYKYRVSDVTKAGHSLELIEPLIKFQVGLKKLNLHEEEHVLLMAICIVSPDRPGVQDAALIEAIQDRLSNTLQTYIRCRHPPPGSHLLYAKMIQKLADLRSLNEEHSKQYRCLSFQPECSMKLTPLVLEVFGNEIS
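VDR–SRC2-3 interaction, FP format. Cmpds 23 nl via pintool, brief spin, 2 h ambient incubation.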
Starred values were filed as active, the others as inactive; ? = inconclusive; & = joins results of further samples; [ ] = dose if it differs, or a comment. % is scaled to controls: 0 for no effect and ±100 for the full control effect; potency is read from the fitted curve at half-maximal effect. Only part of the results is shown; rates above refer to the full screens.

SMILES | VDR inh
CCOc1ccccc1NC(=O)c1ccc(S(=O)(=O)N(C)c2ccccc2)cc1 | -6%
CCCCN1C(=O)/C(=c2\sc3nc(=O)c(-c4ccccc4)nn3c2=O)c2ccccc21 | ?
O=C1C2(c3ccccc3)CN(CCCO)CC1(c1ccccc1)CN(CCCO)C2 | -7%
CCN(CC)C(=O)CSc1nc2cc(OC)c(OC)cc2c(=O)n1Cc1ccc(Cl)cc1 | 13%
COc1cc(C2C(C(C)=O)=C(O)C(=O)N2CCN(C)C)ccc1O (stereo not given) | -1%
O=C(NNC(=O)c1ccc([N+](=O)[O-])cc1)c1ccc(NS(=O)(=O)c2cccs2)cc1 | 22%
COc1ccc(-c2c(S(=O)(=O)c3ccccc3)cnn2-c2ccccc2)cc1 | -17%
CCN(CCn1cccn1)C(=O)c1cc(COc2ccc(F)c(F)c2)on1 | -3%
CCN(CC(=O)NCc1cccs1)S(=O)(=O)c1cccc(C(C)=O)c1 | -15%
Cc1ccccc1C(=O)Nc1ccnn1C1CCN(C(=O)C2CCOC2)CC1 (stereo not given) | -18%
Cc1ccc(SCC2CNc3nc4ccccc4c(=O)n32)c(C)c1 (stereo not given) | 22%
O=[N+]([O-])c1cccc(Cl)c1NCCNS(=O)(=O)c1ccc(Cl)cc1 | -13%
O=C(O)Cc1sc(Nc2ccc(F)cc2)nc1-c1cccs1 | ?
COc1ccc(-c2nc(-c3cccc(C)c3)[nH]c(=O)c2C#N)cc1 | -5%
Cn1c(Cc2ccccc2)nnc1SCC(=O)N1CCOCC1 | -9%
CC(C)(C)c1cc(C(=O)N/N=C/c2ccc(-c3ccccc3[N+](=O)[O-])o2)n[nH]1 | ?
O=C(O)c1ccc(/C=C2/SC(=S)N(c3cccc(C(F)(F)F)c3)C2=O)cc1 | ?
Cn1c(=O)[nH]c(=O)c2c1nc(CN1CCN(c3cccc(Cl)c3)CC1)n2CCCc1ccccc1 | -17%
CC(=O)N(C(C)=O)c1ncnc2c1c(-c1ccc(Cl)cc1)nn2C(C)(C)C | 50µM*
COc1ccc(N2CCN(C(=O)c3sc4ncn(CC(=O)N5CCCCC5)c(=O)c4c3C)CC2)cc1 | -6%
COc1cccc(N2CCN(C(=O)CC(C)(C)CC3=NS(=O)(=O)c4ccccc4N3)CC2)c1 | -7%
O=C(Nc1ccc2c(c1)OCCO2)c1ccc2nccnc2c1 | 2%
Cc1nc2sc(C(c3ccco3)N3CCN(C(c4ccccc4)c4ccccc4)CC3)c(O)n2n1 (stereo not given) | -23%
Cc1ccc(C)c(NC(=O)CN(C)C(=O)c2ccc3c(=O)n4c(nc3c2)CCC4)c1 | -22%
CCCn1c(N)c(C(=O)CSc2nnc(-c3ccco3)n2Cc2ccccc2)c(=O)[nH]c1=O | 8%

Later entries:
SMILES | VDR inh
Cc1nn(C)c(C)c1NC(=O)CSc1nc(C2CC2)nc2c1cnn2-c1ccccc1 | 16%
CC(OC(=O)Cn1[nH]c(=O)c2ccccc2c1=O)C(=O)Nc1cccc(Cl)c1 (stereo not given) | -2%
Cc1ccc(S(=O)(=O)N(C)c2ccc(C(=O)N(CC(C)C)C3CCS(=O)(=O)C3)cc2)cc1 (stereo not given) | 7%
C[N+](C)(CCCOc1ccccc1)c1ccccc1 | -5%
Cc1ccc2nc(CSc3nnc(Nc4ccccc4C)s3)cc(=O)n2c1 | 10%
Cc1c(NC(=O)c2cccc(-c3cc4ccccc4oc3=O)c2)cccc1-c1nc2ncccc2o1 | 4%
COC(=O)C1=C(C)Nc2ccc(C)cc2S1 | 71µM*
CCOC(=O)[C@H]1[C@H]2COc3ccc(Br)cc3[C@@H]2N2C(=O)c3c(C)cc(C)cc3NC(=O)[C@@]12C | -17%
Nn1cc(-c2ccccc2)nc1SCC(=O)N1CCN(S(=O)(=O)c2ccccc2)CC1 | -5%
CCN1CCN(S(=O)(=O)c2ccc(Cl)c(C(=O)N(CC)CC(=O)Nc3ccc(OC)cc3)c2)CC1 | -8%
Cn1c(SCc2cc(=O)[nH]c(C(C)(C)C)n2)nnc1C(F)(F)F | -25%
COc1ccc(/C=C2/SC(=O)N(CCNC(=O)C3CCCN3C(=O)c3cccs3)C2=O)cc1 (stereo not given) | -13%
O=C(Cn1ncc2c3ccccc3n(Cc3ccccc3F)c2c1=O)NC1CC1 | 4%
C=CCSc1nnc(NC(=O)CSc2nc3ccccc3o2)s1 | -3%
CCN(C(=O)Cc1c(C(=O)O)n(C)c2ccccc12)c1ccc(F)cc1 | -2%
Cc1nnc(NC(=O)CSc2ccc(-c3ccc(Cl)cc3)nn2)s1 | -14%
CCOc1ccc(CCNC(=O)C2CCN(c3ccc(N4CCOCC4)nn3)CC2)cc1OCC | -8%
O=C(Nc1ccc(C(F)(F)F)cc1)C1CCCN(S(=O)(=O)c2cccc3cccnc23)C1 (stereo not given) | -5%
COc1ccc(CC(=O)Nc2nccs2)cc1OC | 0%
Cc1ccc(C)c(-n2c(SCC(=O)NCC3CCCO3)nnc2-c2ccoc2C)c1 (stereo not given) | 1%
CC(C)(C)c1ccc2c(c1)C(c1ccc3c(c1)OCO3)CC(=O)O2 (stereo not given) | 9%&-4%
CC1(C)Oc2ccc3ccc(=O)oc3c2[C@H](O)[C@H]1O | -1%
CCOc1ccccc1N1CC(C(=O)Nc2nccs2)CC1=O (stereo not given) | 2%
COc1cccc(C(=O)Nc2nc(-c3ccc(Br)cc3)ns2)c1 | -3%
COc1ccc(CN2C(=O)C(O)(CC(=O)c3ccc4c(c3)OCO4)c3ccccc32)cc1OC (stereo not given) | 4%

Next section
SMILES | VDR inh
CCC(=O)N1CCc2cc(Br)cc(S(=O)(=O)CCC(=O)Nc3ccc(Cl)cc3)c21 | -1%
O=C(Nc1cccnc1)c1cc(S(=O)(=O)N2CCCCC2)c(Cl)cc1Cl | -22%
Cc1cc(NC(=O)CSc2nc3ccccc3c(=O)n2C(C)c2ccccc2)no1 (stereo not given) | -1%
Cc1ccccc1C(=O)Nc1cc2c(cc1N1CCCCC1)n(C)c(=O)n2C | 17%
FC(F)Sc1nnc(-c2cccs2)n1-c1ccccc1 | -23%
Cc1cc(Cl)ccc1NC(=O)CCn1nc(C)c2c(C)n(-c3ccccc3)nc2c1=O | 3%
CCOc1cc(C)c(Cl)cc1S(=O)(=O)NCC1CCCO1 (stereo not given) | 10%
C/C(=N\Nc1nc2ccccc2[nH]1)c1ccc(Cl)s1 | -24%
COc1ccc(-c2cc3ccc(O)cc3oc2=O)cc1OC | -5%
CCCN1C(=O)c2[nH]nc(-c3ccc(OC)cc3)c2C1c1ccccn1 (stereo not given) | 0%
O=C(O)C1C2CCCCC2=C2CCCCC2C1C(=O)O (stereo not given) | -2%
CCCCN=C(C)C1=C(O)CSC1=O | -15%
Nc1nc(SCC(=O)Nc2cccc(Oc3ccccc3)c2)n[nH]1 | -12%
Cc1ccc2c(c1)C(c1ccccc1)N(C(=O)c1ccc(S(=O)(=O)N3CCCCC3)cc1)CC(=O)N2 (stereo not given) | -6%
Cc1cccc(NC(=O)NCc2ccccn2)c1 | 14%
NC(=O)C1(N2CCCCC2)CCN(C(=S)Nc2cc(F)cc(F)c2)CC1 | 3%
COc1ccc2ccc(OCC(=O)N3c4ccccc4NC(=O)CC3C)cc2c1 (stereo not given) | -12%
Cc1cc(C)c(S(=O)(=O)N2CCCOC2CNC(=O)C(=O)NCCCn2ccnc2)c(C)c1 (stereo not given) | 6%
Cc1nn(-c2ccccc2)c(C)c1/C=N/n1c(-c2ccc(C(C)(C)C)cc2)n[nH]c1=S | -6%
Cc1cc(C)cc(N(CC(=O)NCc2ccc3c(c2)OCO3)C(=O)CCC(=O)Nc2ccccn2)c1 | -3%
COC(=O)c1ccsc1NS(=O)(=O)c1ccccc1 | 38%[activator]
Cc1nn(CC(=O)NCc2ccc(Cl)cc2)c(=O)c2cc3sccc3n12 | -1%
O=C(N/N=C/c1ccccc1OCc1ccccc1Cl)c1cccnc1 | -4%
Cc1ccc(Nc2nc(Oc3ccc(=O)[nH]n3)nc(N(C)C)n2)cc1 | -11%
Cc1ccc(SC(C)C(=O)NCc2cccnc2)cc1 (stereo not given) | 5%

Following part
SMILES | VDR inh
C/C(=N\NC(=O)C(=O)Nc1cc(Cl)ccc1Cl)c1ccncc1 | 12%
Cc1c(C2=CCN(S(=O)(=O)c3ccc(Br)cc3)CC2)c2ccccc2n1C | -12%
COC(=O)c1ccc(OC)c(OC)c1Cl | ?
Cc1ccc(OCC(=O)Nc2ccc(NC(=O)c3cccs3)cc2)c(C)c1 | 0%
CCOC(=O)Cc1csc(NC(=O)CSc2nnc(-c3ccncc3)n2Cc2ccco2)n1 | -1%
CC1=NNC(=O)C1CCC(=O)N/N=C/c1ccccc1 (stereo not given) | 15%
COc1cccc(/C=C2\SC(=S)N(CCCC(=O)N3CCCC3)C2=O)c1 | ?
Cc1ccc(-c2cn3nc(-c4ccccc4)c(-c4ccccc4)nc3n2)cc1 | -2%
O=C(CSc1n[nH]c(-c2ccccn2)n1)Nc1cccc(Cl)c1 | -17%
Cc1nccn1CC(=O)N/N=C/c1cccs1 | 5%
O=C(O)Cc1ccc(NCc2ccccc2Cl)cc1 | -4%
CC(Oc1ccc(Cl)cc1Cl)c1ccnc(N)n1 (stereo not given) | 5%
Cc1ccc(CN2CCNC(=O)C2CC(=O)O)o1 (stereo not given) | 6%
Cc1cccc(NCC(=O)N/N=C\c2cccc(Oc3ccccc3)c2)c1 | -4%
N=C(N)c1ccc(O)cc1 | -8%
CC(=O)c1ccc(NC(=O)CN2C(=O)NC(C)(c3ccc4c(c3)OCCO4)C2=O)cc1 (stereo not given) | -12%
COc1ccc(-c2nn(-c3ccccc3)cc2CNC[C@H]2O[C@@H](n3cnc(C(N)=O)n3)[C@H](O)[C@@H]2O)cc1 | -21%
COCCN(Cc1ccccc1)C(=S)Nc1ccc(Cl)cc1 | -6%
COCCn1c(SCC(=O)NC2CC2)nc2ccccc21 | -17%
CN(C)/C=N/n1cnc2ccccc2c1=O | 11%
CC(C(=O)N(C)C1CCS(=O)(=O)C1)N1C(=O)/C(=C/c2ccco2)SC1=S (stereo not given) | -20%
CCn1cc(C(=O)NCCc2ccc(OC)cc2)c(=O)c2ccc(C)nc21 | -10%
COc1cc(OC)c(NS(=O)(=O)c2c(C(=O)N3CCCCC3)c(C)n(C)c2C)cc1Cl | -15%
CN1CCN(C(c2ccc(F)cc2)c2ccc3cccnc3c2O)CC1 (stereo not given) | -17%
Cc1cc(C)c2c(C)nn(C3CCCCC3)c2n1 | 3%

Going on with the list:
SMILES | VDR inh
CC1=C(C)CC2C(=O)N(c3cccc4ccccc34)C(=O)C2C1 (stereo not given) | -13%
CCn1c2ccccc2c2cc(NC(=O)COC(=O)c3ccc(NC(=O)CC#N)cc3)ccc21 | 4%
O=C(NCc1cccc(Cl)c1)c1cnn2c1NC(c1ccco1)CC2C(F)(F)F (stereo not given) | 3%
O=C(CSCCc1ccccn1)Nc1ccccn1 | ?
O=C(Nc1ccc(S(=O)(=O)N2CCCCC2)cc1)c1ccc(CN2CCOCC2)cc1 | 9%
COc1cccc(NC(=S)NCc2ccccn2)c1 | 9%
COc1ccccc1N1CCN(C(=O)c2cccc(S(=O)(=O)N3c4ccccc4CC3C)c2)CC1 (stereo not given) | -21%
COc1ccc(C)cc1NC(=O)C1CCN(S(=O)(=O)Cc2ccccc2)CC1 | 6%
O=C1CC2(CCCC2)Oc2ccc(Cl)cc21 | 3%
COc1ccc(S(=O)(=O)NC2CCCCC2)c(C)c1C | -5%
O=C(COc1cccc(C(F)(F)F)c1)NCC(c1cccs1)N1CCOCC1 (stereo not given) | 6%
O=C(NCCc1c[nH]c2ccccc12)c1c(Cl)nc2sccn12 | -3%
Cc1sc2ncnc(NCCCN3CCCC3=O)c2c1C | -9%
COc1ccc(N2C(C)=CS/C2=C(/C#N)c2nnc(N3CCOCC3)n2-c2ccccc2)cc1 | -8%
CN(C)CCCOC(=O)c1ccc(Cl)cc1Cl | 9%
O=C(c1ccco1)N1C(=O)c2cccc3c(S(=O)(=O)N4CCCC4)ccc1c23 | -1%

Among those listed so far, these have two or more sulfur atoms:
SMILES | VDR inh
O=C(NNC(=O)c1ccc([N+](=O)[O-])cc1)c1ccc(NS(=O)(=O)c2cccs2)cc1 | 22%
CCN(CC(=O)NCc1cccs1)S(=O)(=O)c1cccc(C(C)=O)c1 | -15%
O=C(O)Cc1sc(Nc2ccc(F)cc2)nc1-c1cccs1 | ?
O=C(O)c1ccc(/C=C2/SC(=S)N(c3cccc(C(F)(F)F)c3)C2=O)cc1 | ?
Cc1ccc(S(=O)(=O)N(C)c2ccc(C(=O)N(CC(C)C)C3CCS(=O)(=O)C3)cc2)cc1 (stereo not given) | 7%
Cc1ccc2nc(CSc3nnc(Nc4ccccc4C)s3)cc(=O)n2c1 | 10%
Nn1cc(-c2ccccc2)nc1SCC(=O)N1CCN(S(=O)(=O)c2ccccc2)CC1 | -5%
COc1ccc(/C=C2/SC(=O)N(CCNC(=O)C3CCCN3C(=O)c3cccs3)C2=O)cc1 (stereo not given) | -13%
C=CCSc1nnc(NC(=O)CSc2nc3ccccc3o2)s1 | -3%
Cc1nnc(NC(=O)CSc2ccc(-c3ccc(Cl)cc3)nn2)s1 | -14%
FC(F)Sc1nnc(-c2cccs2)n1-c1ccccc1 | -23%
COC(=O)c1ccsc1NS(=O)(=O)c1ccccc1 | 38%[activator]
CCOC(=O)Cc1csc(NC(=O)CSc2nnc(-c3ccncc3)n2Cc2ccco2)n1 | -1%
COc1cccc(/C=C2\SC(=S)N(CCCC(=O)N3CCCC3)C2=O)c1 | ?
CC(C(=O)N(C)C1CCS(=O)(=O)C1)N1C(=O)/C(=C/c2ccco2)SC1=S (stereo not given) | -20%

Bioassay records (PubChem)
